High-throughput results deposited in PubChem BioAssay by several laboratories.
RecA intein inh – Mtb RecA intein splicing inhibition; inhibition, %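 (about 9 µM by stock and volumes)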; hit rate 0.75% among 290,000; AID 2221; cell-free RecA intein splicing, fluorescence; P9WHJ3; in the data active means inhibition above about 30%; inconclusive means no clear call, values can overlap the other calls;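 further: 0% = vehicle wells and 100% = reference inhibitor control wells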
Target sequence (P9WHJ3 whole entry, looked up): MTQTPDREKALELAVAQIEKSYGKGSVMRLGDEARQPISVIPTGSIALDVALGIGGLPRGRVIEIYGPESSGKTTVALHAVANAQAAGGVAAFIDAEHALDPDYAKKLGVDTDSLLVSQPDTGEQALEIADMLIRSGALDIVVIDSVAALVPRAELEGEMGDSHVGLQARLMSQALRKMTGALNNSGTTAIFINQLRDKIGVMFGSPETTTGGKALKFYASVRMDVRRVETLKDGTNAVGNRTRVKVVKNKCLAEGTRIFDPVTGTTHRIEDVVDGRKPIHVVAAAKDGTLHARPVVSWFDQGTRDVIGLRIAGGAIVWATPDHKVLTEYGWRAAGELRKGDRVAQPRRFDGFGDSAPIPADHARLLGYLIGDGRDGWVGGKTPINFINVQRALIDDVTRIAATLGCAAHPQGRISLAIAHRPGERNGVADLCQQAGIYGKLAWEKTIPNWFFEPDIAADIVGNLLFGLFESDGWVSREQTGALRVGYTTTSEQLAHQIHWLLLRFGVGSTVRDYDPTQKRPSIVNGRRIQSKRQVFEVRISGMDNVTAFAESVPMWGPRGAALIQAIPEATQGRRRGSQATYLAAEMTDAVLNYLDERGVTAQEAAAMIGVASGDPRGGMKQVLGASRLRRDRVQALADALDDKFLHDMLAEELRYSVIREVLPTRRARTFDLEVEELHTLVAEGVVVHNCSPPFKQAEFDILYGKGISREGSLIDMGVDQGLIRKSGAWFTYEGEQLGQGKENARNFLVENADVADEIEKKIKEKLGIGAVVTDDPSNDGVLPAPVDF
Mtb bLac sens – beta-lactam sensitization of Mtb H37Rv. hit rate 0.27% among 330,000. inhibition, % at 25 µM. M. tuberculosis H37Rv growth with meropenem, percent inhibition; hits of this screen are not shown here;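 active means about 74% or more and at least 40 points above the plate without the antibiotic, then above 30% in a dose series; inconclusive means first-round hits that could not be retested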;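 further: growth measured after seven days incubation then overnight dye step; 0% = bacteria only wells and 100% = bacteria with antibiotic; twin plates without the antibiotic show which effects depend on it; some results filed as inactive read as strong as hits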
Mtb H37Rv – M. tuberculosis H37Rv growth inhibitors, H37Rv strain (AID 1626). M. tuberculosis H37Rv growth inhibition; higher % means a stronger effect. inhibition, % at 10 µM, or IC50 in µM where a hit was titrated. hit rate 0.95% among 220,000;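 active means confirmed in a dose series; inconclusive means inhibition above 80% but not taken into the dose series; inactive means below 80% or under 30% at every dose of the series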;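 further: bacteria incubated seven days before Alamar blue readout; 0% = bacteria only wells and 100% = bacteria with antibiotic wells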
YopH inh – YopH (Yersinia) phosphatase inhibition | fluorescence Ex485/Em525 | inhibition, %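 (about 10 µM by stock and volumes)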 | hit rate 0.16% among 140,000 | AID 898;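 active means inhibition of 50% or more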;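 further: controls were vehicle for no effect and minimum signal wells for full effect; inactives centre near -20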
Arbovirus inh – arbovirus infection inhibition | arbovirus infection cell-based antiviral screen | inhibition, % at 10 µM | hit rate 0.37% among 200,000 | AID 1251;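 active means inhibition from about 30%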;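 further: bluetongue infection of BSR cells; cell survival read as ATP light after 72 h; 0% = infected wells without compound and 100% = uninfected wells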
Arbovirus inh repeat – recorded beside Arbovirus inh, whose call it bears; inhibition, %; measured here: 10K subset replicate screen; many hits read low in the repeat;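 first of two repeat runs on a subset; 0% = infected and 100% = uninfected wells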
Starred values were filed as active, the others as inactive; ? = inconclusive; nt = no result given.

SMILES	RecA intein inh	Mtb bLac sens	Mtb H37Rv	YopH inh	Arbovirus inh	others
Cc1ccc2nc(N3CCCCC3)c(C=O)c(=O)n2c1	1.4	-3	8%	nt	-2
COc1ccc(CCN2C(=O)C3C4CCC(C4=C(C)C)C3C2=O)cc1OC (stereo not drawn)	-0.4	-1	-4%	-10	3
O=C(CCc1ccccc1)NCC(c1ccco1)N1CCc2ccccc21 (stereo not drawn)	4.0	-5	nt	nt	nt
CCC1CC(CSc2ncn[nH]2)OC1=O (stereo not drawn)	-5.4	3	-5%	-103	6
O=C(Nc1nnc(C2CCCO2)s1)c1cccs1 (stereo not drawn)	-0.2	-5	-11%	-23	5
CCN(CC)c1ccc(C(=O)Nc2ccccc2)cc1[N+](=O)[O-]	1.5	8	10%	nt	-8
CC1CCCN(CCCNC(=O)c2ccc(CS(=O)(=O)Cc3cccc(Cl)c3)o2)C1 (stereo not drawn)	4.7	-4	nt	nt	nt
O=C(Cn1nnc(-c2ccccc2NC(=O)c2ccccc2F)n1)NCc1ccco1	-0.2	-5	3%	-33	2	Arbovirus inh repeat=1
C/C(N)=C(/C#N)C(=O)COC(=O)c1cc(S(=O)(=O)N2CCCCC2)ccc1C	0.6	-1	nt	-51	-1
Cc1nc(Nc2ccc3c(c2)OCCO3)c2c(C)c(C)sc2n1	0.9	88	1%	nt	-11
Cc1nn(CC#N)c(=O)n1N(C)c1ncc(C(F)(F)F)cc1Cl	1.2	-1	7%	nt	8
Cc1cccc2cc(CN(CC3CCCO3)C(=O)NC3CCCCC3)c(=O)[nH]c12 (stereo not drawn)	0.8	2	-7%	-42	2
CCOC(=O)CC(=O)Nc1c(C)cc(C)cc1C	1.5	-6	-8%	11	3
C=CCOc1nc2c(c(=O)n(C)c(=O)n2C)n1C	3.0	2	-1%	-92	6
O=[N+]([O-])c1cccc(C2NCC(c3ccccc3Cl)c3c2[nH]c2ccccc32)c1 (stereo not drawn)	nt	1	19%	nt	-31
O=C1CN=C(c2ccccc2Cl)c2cc(Br)ccc2N1	4.7	-11	nt	nt	nt
COc1ccc(OC)c(NC(=O)Cn2cc(C#N)c3cc(Br)ccc32)c1	0.3	23	13%	-10	8
Clc1cccc(Cl)c1CNC1CCCC1	-0.4	-2	1%	-5	-2
Cc1ccccc1-c1ocnc1C(=O)Nc1ccccc1NC(=O)c1ccccn1	1.5	48	nt	nt	nt
COc1cc(/C=C/C(=O)OCC(=O)NCc2ccco2)ccc1OC(F)F	5.4	-1	nt	nt	nt
COc1ccc(-n2c(SCC(N)=O)nc3sc4c(c3c2=O)CCN(C)C4)cc1	2.8	-2	-3%	-35	0
COc1cc([N+](=O)[O-])ccc1NC(=S)N1CCN(c2ccccn2)CC1	5.0	-1	-5%	nt	-3
CC(C)CC(NC(=O)c1ccccc1)C(=O)OCC(=O)Nc1ccc(S(N)(=O)=O)cc1 (stereo not drawn)	0.1	0	-10%	nt	-3
CN1C(=O)c2ccc(S(=O)(=O)c3ccc(C(=O)O)cc3)cc2C1=O	-3.2	10	-6%	-37	2
S=C(NCc1ccccc1)N1CCN(c2ccccc2)CC1	-0.5	2	-2%	nt	2
CCN(C(=O)COC(=O)c1ccc(Cl)nc1)C1CCS(=O)(=O)C1 (stereo not drawn)	-0.1	-6	-7%	nt	-3
O=C(NCc1ccncc1)C(=O)NCC1OCCCN1S(=O)(=O)c1cc(F)ccc1F (stereo not drawn)	-0.9	-4	nt	nt	nt
CC(=O)Nc1ccc(S(=O)(=O)NCCN2CCOCC2)cc1	1.3	-7	-3%	-32	-6
CN(C)C(CNc1ccc(C(N)=O)cc1[N+](=O)[O-])c1ccccc1 (stereo not drawn)	1.5	-8	nt	nt	nt
CCc1c(C#N)sc(C(N)=O)c1CC	0.3	-4	1%	nt	nt
Cc1onc(-c2ccccc2)c1C(=O)N1CCC(CO)(Cc2ccccc2)CC1	1.8	5	nt	nt	nt
Cc1ccccc1NC(=O)C1Cc2ccccc2C(=O)O1 (stereo not drawn)	2.3	?	-4%	6	6
CCN(CC)c1ccc(-n2cc3c(=O)n(C)c(=O)n(C)c3c2)cc1	-4.4	89	37%	-9	-19
CC1(C)CC(NC(=O)C2CCCCC2)CC(C)(C)N1	0.6	-11	nt	nt	nt
Cc1nc(SCC(=O)NCCc2ccccc2)n[nH]1	0.8	-2	nt	-49	8
CCc1ccccc1NC(=O)C1C(c2ccccc2)C1(Cl)Cl (stereo not drawn)	0.2	56	-3%	3	-5
CC(C)=CCC/C(C)=C/CC/C(C)=N/O	-2.6	-3	-3%	-8	8
O=C(/C=C/c1ccc(Br)cc1)NC(=S)N1CCOCC1	nt	-3	-7%	nt	16
COc1ccc(NC(=O)CCC(=O)OCc2ccc(Br)cc2)cc1	-1.5	34	17%	-29	4
Cc1ccc(C(=O)N2CCN(c3ccc(NC(=O)c4cc(C)cc(C)c4)cc3)CC2)cc1	-1.6	4	nt	nt	nt
O=C(Nc1ccc(Cl)c(Cl)c1)O/N=C/c1ccncc1	0.8	?	?	-10	-12
COc1cc(/C=C(\NC(C)=O)C(=O)NC(C)(C)C)ccc1OC(C)=O	-4.5	2	-3%	-30	10
Cc1cccc(NS(=O)(=O)c2ccc(C(=O)NCC(c3ccco3)N3CCCCC3)cc2)c1C (stereo not drawn)	4.6	3	nt	nt	nt
O=C(Cc1ccccc1[N+](=O)[O-])NC1CC1	1.4	-6	-1%	nt	-3
COc1ccc(N(C)C(=O)Cc2c(C(=O)O)[nH]c3ccccc23)c(OC)c1	nt	2	2%	nt	26
COc1ccc(CN(C)C(=O)c2cccc(S(=O)(=O)N3CCN(c4ccccc4)CC3)c2)c(OC)c1OC	5.5	-3	nt	nt	nt
CCC(=O)Nc1nc2ccccc2n1Cc1ccccc1Cl	1.7	91	?	nt	nt
COc1ccc(/C=N/Nc2nc(-c3cccnc3)nc3ccccc23)cc1OC	-7.5	-1	1%	nt	nt
CCOc1cnc(-c2c(-c3c(F)cccc3Cl)noc2C)o1	5.2	0	6%	nt	1
CCOC(=O)COc1cc(Br)c(C2NC(=O)NC(C)=C2C(C)=O)cc1OCC (stereo not drawn)	-2.2	-5	-3%	0	4
Cc1ccc(C)c(NC(=O)c2cc3c([nH]c4ccccc43)c(C)n2)c1	-3.8	1	-4%	-24	-13
CCCC(CCC(=O)Nc1nccs1)C(=O)O (stereo not drawn)	-0.3	-2	-6%	nt	19
O=C(O)c1cccc(S(=O)(=O)Nc2ccc3c(c2)OCO3)c1	nt	-4	-4%	-31	-5
O=c1cc(CO)oc(C(Nc2ccccn2)c2ccsc2)c1O (stereo not drawn)	-1.4	-5	-5%	-29	-2
O=S1(=O)CC=C(CSC(=S)NC2CCS(=O)(=O)C2)C1 (stereo not drawn)	5.9	22	-9%	nt	0
COc1cc(C2C(C#N)=C(N)N(N(C)C)C3=C2C(=O)CC(C)(C)C3)cc(OC)c1OC (stereo not drawn)	-0.8	-1	nt	nt	nt
NS(=O)(=O)c1ccc(CCNC(=O)CCNC(=O)c2ccco2)cc1	-1.3	-1	nt	nt	nt
Cc1ccc2c(SCC(=O)NCc3ccco3)nc(-c3ccc(F)cc3)nc2c1	-0.5	42	0%	-48	-21
Brc1ccccc1CN1CCC(Cc2ccccc2)CC1	0.6	8	nt	nt	nt
Cc1ccc(C2=NN=C(NC(=O)C(F)(F)F)SC2)cc1	nt	nt	-2%	nt	-13

In the list so far, these contain an aryl thioether with sulfur outside any ring:
SMILES	RecA intein inh	Mtb bLac sens	Mtb H37Rv	YopH inh	Arbovirus inh	others
CCC1CC(CSc2ncn[nH]2)OC1=O (stereo not drawn)	-5.4	3	-5%	-103	6
COc1ccc(-n2c(SCC(N)=O)nc3sc4c(c3c2=O)CCN(C)C4)cc1	2.8	-2	-3%	-35	0
Cc1nc(SCC(=O)NCCc2ccccc2)n[nH]1	0.8	-2	nt	-49	8
Cc1ccc2c(SCC(=O)NCc3ccco3)nc(-c3ccc(F)cc3)nc2c1	-0.5	42	0%	-48	-21

Back to the main list with the three entries that preceded the break.
SMILES	RecA intein inh	Mtb bLac sens	Mtb H37Rv	YopH inh	Arbovirus inh	others
Cc1ccc2c(SCC(=O)NCc3ccco3)nc(-c3ccc(F)cc3)nc2c1	-0.5	42	0%	-48	-21
Brc1ccccc1CN1CCC(Cc2ccccc2)CC1	0.6	8	nt	nt	nt
Cc1ccc(C2=NN=C(NC(=O)C(F)(F)F)SC2)cc1	nt	nt	-2%	nt	-13
Cc1[nH]c(=O)[nH]c(=O)c1S(=O)(=O)N1c2ccc(F)cc2CCC1C (stereo not drawn)	2.5	-19	-10%	-21	6
CCC1CN(C(=O)Nc2cccc(C)c2)c2cc(C)ccc2O1 (stereo not drawn)	11	5	-4%	nt	-10
Cc1cccc(N2CCN(C(=O)C3CCN(c4nnc(-n5cccc5)s4)CC3)CC2C)c1 (stereo not drawn)	1.3	10	?	8	-13	Arbovirus inh repeat=-5
Cc1onc(-c2ccccc2Cl)c1C(=O)OCC(=O)Nc1cccc(S(=O)(=O)N2CCOCC2)c1	10	0	9%	nt	19
Cc1ccc(S(=O)(=O)N2CCCC(C(=O)NCc3cccnc3)C2)cc1Cl (stereo not drawn)	nt	1	8%	-1	2
C#CCSc1nnc(C)c(C)n1	1.2	-5	-18%	nt	nt
COc1ccc(C(=O)Nc2ccc(S(=O)(=O)N(C)c3ccccc3)cc2)cc1	10	2	nt	nt	nt
N#Cc1nc(COc2ccccc2)oc1N1CCC(Cc2ccccc2)CC1	6.1	-6	0%	-13	12
OCCCNc1ncnc2oc(-c3ccccc3)c(-c3ccccc3)c12	-0.5	1	nt	nt	nt
CN(C)C(=O)CCC(=O)N1CCCCC1C(=O)Nc1ccc(Oc2ccccc2F)cc1 (stereo not drawn)	-0.6	1	nt	nt	nt
Cc1nn(CCc2nn[nH]n2)c2nc(-c3ccc(C4CCCCC4)cc3)cc(C(F)(F)F)c12	34*	nt	65%	nt	-35
COc1ccccc1CN1CC(C(=O)NC2CCCCC2)CC1=O (stereo not drawn)	-0.1	4	-1%	-30	7
CN(C)C(=O)c1ccc(-n2nc(C(F)(F)F)c3c2CCCC3)cc1	-1.1	nt	-2%	-23	3
CCN(CCNc1ccc([N+](=O)[O-])c2cccnc12)S(=O)(=O)c1ccccc1	-2.7	-8	2%	-9	-6
Cc1sc2nc3c(C(=O)N4CCN(c5ccccn5)CC4)cccn3c(=O)c2c1C	nt	nt	4%	-45	9
CC(C)=CC(=O)Nc1c(C)cc(C)cc1Cl	nt	-2	-3%	nt	1
O=C1CC(C(=O)N2CCN(S(=O)(=O)c3cccc(F)c3)CC2)CN1Cc1ccccc1Cl (stereo not drawn)	0.7	-6	nt	nt	nt
CC(=O)c1sc(NC(=O)c2cc3c(C)nn(-c4ccccc4)c3s2)nc1C	-1.3	-3	-3%	-21	4
O=C(c1cc2ccccc2cc1O)N1CCCC(C(F)(F)F)C1 (stereo not drawn)	0.1	-7	nt	nt	nt
Cc1ccc(/C(N)=N/OC(=O)N2CCOCC2)cc1	1.0	-3	0%	-67	-34
O=C(CNCC1CCCO1)Nc1ccc([N+](=O)[O-])cc1C(=O)Nc1ccccc1F (stereo not drawn)	-4.5	-1	2%	nt	5
CCOP(=O)(OCC)C1(O)C(=O)Nc2ccc(Br)cc21 (stereo not drawn)	1.7	5	0%	-16	-4
COc1ccc(C(=O)/C=C/Nc2ccc(S(=O)(=O)Nc3cccc(C(C)=O)c3)cc2)cc1	-3.7	9	-3%	-22	-16
Cc1c(C(=O)N2CCCCC2)c(S(=O)(=O)N2CCN(c3ccc(F)cc3)CC2)c(C)n1C	-1.2	0	nt	nt	nt
COc1ccc(-c2noc(=O)n2Cc2ccc(C#N)cc2)cc1	-0.6	-6	nt	nt	nt
Fc1ccc(OCc2nn[nH]n2)c(F)c1	2.1	4	nt	nt	nt

As a short view, 5 of the compounds above:
SMILES	RecA intein inh	Mtb bLac sens	Mtb H37Rv	YopH inh	Arbovirus inh	others
CCOP(=O)(OCC)C1(O)C(=O)Nc2ccc(Br)cc21 (stereo not drawn)	1.7	5	0%	-16	-4
COc1ccc(C(=O)/C=C/Nc2ccc(S(=O)(=O)Nc3cccc(C(C)=O)c3)cc2)cc1	-3.7	9	-3%	-22	-16
Cc1c(C(=O)N2CCCCC2)c(S(=O)(=O)N2CCN(c3ccc(F)cc3)CC2)c(C)n1C	-1.2	0	nt	nt	nt
COc1ccc(-c2noc(=O)n2Cc2ccc(C#N)cc2)cc1	-0.6	-6	nt	nt	nt
Fc1ccc(OCc2nn[nH]n2)c(F)c1	2.1	4	nt	nt	nt

This is a subset; count on the stated rates, not on these rows.
